HNF4A DNA FP = change in binding of human HNF4 alpha to DNA | P41235 | 0.3% of 360,000 active | AID 1224865 | HNF4a-FITC DNA binding, fluorescence polarization, 1 h | activity change, % at 10 µM; in the data active = activity change above about 30%, passing the limit was not always enough;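 also: controls were the assay level and a saturating level of protein; the project sought stronger binding though the title names inhibitors; some compounds called inactive have numbers as strong as hits; positive values seem to mean higher polarization but the record does not say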
Target sequence (P41235 whole entry, looked up): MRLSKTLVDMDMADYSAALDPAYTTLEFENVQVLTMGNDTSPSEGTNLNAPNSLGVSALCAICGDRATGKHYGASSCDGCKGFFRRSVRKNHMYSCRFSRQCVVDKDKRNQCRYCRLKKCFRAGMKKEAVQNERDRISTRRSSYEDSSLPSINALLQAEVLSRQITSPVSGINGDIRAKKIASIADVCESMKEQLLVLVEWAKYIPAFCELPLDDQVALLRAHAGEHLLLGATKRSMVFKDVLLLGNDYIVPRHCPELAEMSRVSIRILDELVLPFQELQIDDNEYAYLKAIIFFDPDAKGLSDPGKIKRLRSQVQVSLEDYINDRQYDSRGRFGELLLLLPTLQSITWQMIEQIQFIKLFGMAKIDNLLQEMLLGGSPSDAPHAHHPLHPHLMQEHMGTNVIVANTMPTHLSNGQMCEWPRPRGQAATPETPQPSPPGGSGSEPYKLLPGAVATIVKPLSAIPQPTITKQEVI
RanGTP-Imp inh = inhibitors of RanGTP-importin-beta interaction, primary screen, biochemical, FRET, CFP-Ran, YFP-importin-beta, homogeneous. cell-free CFP-Ran/YFP-importin-beta FRET ratio. inhibition, % (test concentration not listed). 1.1% of 300,000 active. AID 2216;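 active = most replicates above 15%; inconclusive = exactly half above 15%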;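 also: 0% = DMSO wells and 100% = Ran loaded with GDP instead of GTP; wells of about 40 µL received 100 nL stock; the first replicate is given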
ALR inh = human ALR oxidase inhibition via reduced H2O2. inhibition, % (concentration not given with the values). purified ALR, DTT oxidation, H2O2 HRP-luminol luminescence. AID 485317. 3.8% of 290,000 active. P55789;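 active = mean and each replicate at 75% or more; inconclusive = only one of the two met; inactive = neither met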;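 also: stock transfer was 7.5 nL into about 7.5 µL; 0% = neutral wells and 100% = wells with inactivated enzyme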
B2AR ag = agonists of human beta-2 adrenergic receptor inducing internalization. 0.43% of 340,000 active. AID 504454. Am2.2-beta2AR cells, FAP receptor internalization, flow cytometry; reference of the scale not given here. response, % (concentration not given with the values);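 active = response above a set limit, near 3 SD of response in nonfluorescent compounds, cut at about 42% in these data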;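 also: stock transfer was 100 nL into about 11 µL; a reference agonist was the positive control; negative values mostly stem from fluorescent compounds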
Target sequence (P07550 whole entry, looked up): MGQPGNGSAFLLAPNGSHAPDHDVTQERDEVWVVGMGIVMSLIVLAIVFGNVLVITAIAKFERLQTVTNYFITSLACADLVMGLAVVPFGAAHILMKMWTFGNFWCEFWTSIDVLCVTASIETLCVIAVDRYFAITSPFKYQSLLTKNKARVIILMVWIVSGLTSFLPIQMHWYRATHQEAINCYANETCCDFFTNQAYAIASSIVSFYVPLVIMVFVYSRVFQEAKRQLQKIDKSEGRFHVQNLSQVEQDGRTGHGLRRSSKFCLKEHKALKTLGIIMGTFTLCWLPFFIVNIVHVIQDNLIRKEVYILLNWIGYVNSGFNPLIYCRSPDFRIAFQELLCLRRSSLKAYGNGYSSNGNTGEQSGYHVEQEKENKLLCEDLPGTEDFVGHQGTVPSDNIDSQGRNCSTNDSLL
Calb FLC = affects C. albicans growth with fluconazole; C. albicans CaCi-2 (fluconazole-resistant clinical isolate) + fluconazole, Alamar Blue growth, 48 h; growth inhibition, % (test concentration not listed); 0.57% of 300,000 active;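 active = most replicates above 75%; inconclusive = exactly half above 75%; inactive = most below 75%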;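 also: all wells also contain fluconazole at 8 µg/ml as a sub-toxic cotreatment; 0% = median of DMSO wells and 100% = median of geldanamycin control wells; wells of about 8 µL received 7.5 nL stock; the first replicate is given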
LANA-H2A inh = blocks KSHV LANA binding to histone H2A/H2B | AID 2629 | Q9QR71 | inhibition, % (test concentration not listed) | cell-free LANA-H2A/H2B peptide, fluorescence polarization | 0.6% of 320,000 active; in the data active = inhibition mostly above about 10%, no sharp cut-off; inactive = mostly below about 6.7%;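 also: stock transfer was 7.5 nL into about 10 µL; 0% = median of vehicle wells and 100% = median of positive control wells; one replicate is shown; the record names a cut of 25% in any replicate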
Vif A3G = HIV-1 Vif–A3G interaction blockers – biochemical, TR-FRET, GST-Vif 1-94, biotin-A3G peptide, dose response retest, primary screen (AID 1117319); TR-FRET GST-Vif / biotin-A3G peptide binding; higher % means a stronger effect; test concentration not given here; strong numbers were not always called active; 0.57% of 260,000 active; inhibition, %, or IC50 in µM where a hit was titrated;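 active = above the screen mean plus three standard deviations and confirmed in dose response; inconclusive = results disagree or hit not tested in dose response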;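 also: Vif residues 1-94 fused to GST binding biotinylated APOBEC3G peptide 110-148; 0% = full assay without inhibitor and 100% = GST in place of GST-Vif; retest series ran down from 100 µM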
* marks the source's active call; other numbers are inactive results; u = inconclusive; x = no result given.

nr	SMILES	HNF4A DNA FP	RanGTP-Imp inh	ALR inh	B2AR ag	Calb FLC	LANA-H2A inh	Vif A3G
1	O=C(c1ccc(=O)[nH]c1)N(Cc1cccs1)C1(C(=O)NC2CCCC2)CCCCC1	-0.7	2.2	0	11	-1	-3.4	x
2	COc1ccc(NC(=O)CC2C(=O)NCCN2C(=O)c2ccc(N(C)C)cc2)cc1 (stereo not given)	1.1	1.8	-3	3	9	0.7	0%
3	COc1ccccc1C(=O)OC1CCCN(C)C1 (stereo not given)	2.0	-2.1	1	0	16	0.1	-9%
4	O=C(Nc1ccc(Nc2ccccc2)cc1)c1c(F)c(F)c(F)c(F)c1F	-4.3	5.2	-7	24	1	-0.3	x
5	CCOc1ccccc1NC(=O)c1cc(C(=O)c2cc(OC)ccc2O)coc1=N	5.0	-0.6	20	-4	5	-5.0	2%
6	O=C(Nc1cccc(C(=O)N2CCN(c3ccccc3)CC2)c1)c1ccco1	0.0	4.5	46	-13	1	-3.0	x
7	Cc1cc(/C=N/n2cnnc2)c(C)n1-c1ccc(OCc2ccc(Cl)cc2Cl)cc1	-0.2	2.5	-7	18	33	6.5	0%
8	CC1Cc2nc(SCC(=O)NCc3ccco3)n(-c3ccccc3)c(=O)c2S1 (stereo not given)	-1.7	2.4	-8	-9	-4	1.5	3%
9	CCOC(=O)Cc1cc(=O)n2[nH]c(C(C)(C)C)cc2n1	2.3	1.9	0	1	-2	4.7	2%
10	N#CCSc1nc2ccccc2o1	-1.2	3.1	-2	-1	-3	-1.3	-4%
11	O=C(O)/C(=N/NC(=O)c1ccc(Cl)cc1)c1ccccc1	-3.6	9.5	-11	-1	-1	3.2	22%
12	CC[C@@H](C)[C@H](NC(=O)Cc1c(C)c2c(cc(C)c3c(C)coc32)oc1=O)C(=O)O	1.1	-2.0	3	-2	-5	0.3	-1%

The closing 2 entries of the part above lead into the next.
nr	SMILES	HNF4A DNA FP	RanGTP-Imp inh	ALR inh	B2AR ag	Calb FLC	LANA-H2A inh	Vif A3G
11	O=C(O)/C(=N/NC(=O)c1ccc(Cl)cc1)c1ccccc1	-3.6	9.5	-11	-1	-1	3.2	22%
12	CC[C@@H](C)[C@H](NC(=O)Cc1c(C)c2c(cc(C)c3c(C)coc32)oc1=O)C(=O)O	1.1	-2.0	3	-2	-5	0.3	-1%
13	Cc1ccnc2nc(C(=O)OCC(=O)N3CC(C)CC(C)C3)nn12 (stereo not given)	-3.7	x	x	-6	x	x	2%
14	COc1ccc(CCNC(=O)COC(=O)c2ccc(N3CCCC3=O)cc2)cc1	16	2.1	0	-15	-7	-3.4	0%
15	C=CCn1cccc(C(=O)Nc2ccc(OC)cc2OC)c1=O	7.0	-4.5	-15	2	-22	0.7	2%
16	O=C(NCCc1ccccc1)c1ccc(NS(=O)(=O)c2ccc3[nH]c(=O)[nH]c3c2)cc1	-4.3	2.8	-1	-10	6	-4.0	5%
17	COc1cc(/C=C/c2ccc(/C=C/c3cc(OC)c(OC)c(OC)c3)cc2)cc(OC)c1OC	-3.2	x	x	5	x	x	-12%
18	CC(=O)C1=C(O)CC(c2ccccc2)CC1=NCCc1c(C)[nH]c2ccccc12 (stereo not given)	-1.2	-2.0	-2	8	-5	-4.5	x
19	CN1CCN(c2ccc(S(=O)(=O)N3CCCCC3)cc2NC(=O)c2ccc3ccccc3c2)CC1	2.1	-0.8	-4	-6	-2	-1.4	-2%
20	Cc1cccnc1NC1OC(=O)c2ccccc21 (stereo not given)	1.5	-6.6	-23	-4	7	-4.1	-1%
21	CC1CCN(C(=O)COc2coc(CN3CCc4ccccc43)cc2=O)CC1	0.8	5.4	19	1	17	4.2	-13%
22	O=C(/C(=C/c1cccc(Cl)c1)c1nc2ccccc2[nH]1)c1ccccc1	-3.0	2.1	40	26	-6	7.7	-4%
23	CCC1(CC)C(=O)N(C)C(=O)NC1=Nc1ccccc1	-7.8	4.1	0	-5	6	0.3	-3%
24	O=C(NCc1cccnc1)c1nn2cccnc2c1Cl	1.6	-0.5	2	0	-4	4.2	15%

Taken from above.
COc1cc(/C=C/c2ccc(/C=C/c3cc(OC)c(OC)c(OC)c3)cc2)cc(OC)c1OC in Vif A3G has -12%
Cc1ccnc2nc(C(=O)OCC(=O)N3CC(C)CC(C)C3)nn12 (stereo not given) in HNF4A DNA FP has -3.7
O=C(/C(=C/c1cccc(Cl)c1)c1nc2ccccc2[nH]1)c1ccccc1 in HNF4A DNA FP has -3.0

The list goes on.
nr	SMILES	HNF4A DNA FP	RanGTP-Imp inh	ALR inh	B2AR ag	Calb FLC	LANA-H2A inh	Vif A3G
25	O=[N+]([O-])c1ccc(-c2cnc(SC(c3ccccc3)c3ccccc3)[nH]2)cc1	7.0	-17	x	-5	-17	x	17%
26	O=C(CSc1nc2ccc(N3CCOCC3)cc2c(=O)n1CCc1ccccc1)NCC1CCCO1 (stereo not given)	0.5	-0.4	-39	-6	11	-0.1	30%
27	Cc1ccc(-c2cc(C(=O)N3CCOCC3)c3cc(C)ccc3n2)cc1	-0.1	u	-16	11	-13	-1.8	-4%
28	Nc1ccc(Oc2ccc(Br)cc2)cc1	4.3	2.3	32	8	-8	2.3	1%
29	O=C(NCc1ccc(F)cc1)C1CCCN1S(=O)(=O)c1cccc2nsnc12 (stereo not given)	1.7	u	-22	-2	1	x	1%
30	O=C(NCCNC(=O)c1cc(OCC(F)(F)F)ccc1OCC(F)(F)F)Nc1cccc(C(F)(F)F)c1	2.6	u	-9	-4	-15	1.3	73%
31	CC(C)c1cc(CN2CCN(Cc3ccc(F)c(F)c3)C(CCO)C2)[nH]n1 (stereo not given)	0.7	-0.3	-1	5	-16	-0.1	2%
32	Nc1ncnc2c1ncn2C1OC(C(=O)NC2CC2)C(O)C1O (stereo not given)	1.3	x	-2	-1	x	6.9	x
33	Cn1c(CCN2CCN(c3ccc(F)cc3)CC2)nc2cc(NC(=O)c3ccco3)ccc21	-0.3	u	38	-17	2	-0.2	-6%
34	CCOc1ccccc1C1c2[nH]c3ccccc3c2C[C@H]2C(=O)N(C3CCN(Cc4ccccc4)CC3)CC(=O)N12 (stereo not given in full)	2.3	5.5	16	15	4	-0.3	-4%
35	Cc1c(C)n2c(SCC(=O)N3CC(C)OC(C)C3)nnc2[nH]c1=O (stereo not given)	-3.3	-3.5	-1	0	1	5.8	-5%
36	COc1ccc(C(OCC(O)CNCCc2ccc(S(N)(=O)=O)cc2)c2ccc(OC)cc2)cc1 (stereo not given)	1.3	2.8	-4	7	-8	-3.6	0%

Full records as entered above.
CCOc1ccccc1C1c2[nH]c3ccccc3c2C[C@H]2C(=O)N(C3CCN(Cc4ccccc4)CC3)CC(=O)N12 (stereo not given in full) in the list: HNF4A DNA FP: 2.3; RanGTP-Imp inh: 5.5; ALR inh: 16; B2AR ag: 15; Calb FLC: 4; LANA-H2A inh: -0.3; Vif A3G: -4%
COc1ccc(C(OCC(O)CNCCc2ccc(S(N)(=O)=O)cc2)c2ccc(OC)cc2)cc1 (stereo not given) in the list: HNF4A DNA FP: 1.3; RanGTP-Imp inh: 2.8; ALR inh: -4; B2AR ag: 7; Calb FLC: -8; LANA-H2A inh: -3.6; Vif A3G: 0%

(list continues)
nr	SMILES	HNF4A DNA FP	RanGTP-Imp inh	ALR inh	B2AR ag	Calb FLC	LANA-H2A inh	Vif A3G
37	CCOc1ccc(NCc2cccn2-c2nnc(N3CCC(C(=O)NCCCN4CCCCC4)CC3)s2)cc1	2.5	-2.9	99*	9	-6	-1.3	x
38	CCOc1cc(NC(=S)NCCCOC)c(OCC)cc1NC(=O)c1cccs1	5.8	0.7	7	-20	0	-0.2	15%
39	C/C(=N\NC(=O)c1ccc2c(c1)OCO2)c1ccc2c(c1)OCO2	-2.1	1.5	x	-1	-8	-0.2	x
40	CSc1ccccc1NC(=O)c1cnc2sc(C)cn2c1=O	-6.2	-1.8	2	3	12	6.0	-35%
41	N#Cc1cc(C(=O)c2ccccc2O)cn(-c2nccs2)c1=O	7.8	-33	97*	-24	11	-4.6	x
42	CCc1ccc(C(C)NC(=O)c2ncn[nH]2)cc1 (stereo not given)	-4.2	0.6	23	-4	2	3.1	x
43	COc1ccccc1CNC(=O)COc1ccc(Br)c(C)c1	-2.5	6.5	-12	-2	18	-1.9	x
44	CCOc1ccccc1C(=O)Nc1nncs1	-0.9	-1.8	-2	-2	-15	7.9	-14%
45	NC(=O)[C@@H]1CCCNc2c(F)cc([N+](=O)[O-])cc2C(=O)N[C@@H](CO)C(=O)N[C@@H](Cc2ccc(O)cc2)C(=O)N1	-3.6	1.2	8	1	-3	-6.5	u
46	COc1ccc(NC(=O)C(C)(C)Oc2ccc(Cl)cc2)cn1	0.5	x	-4	-6	x	7.2	x
47	COc1ccc(CCNc2oc(COc3ccccc3F)nc2C#N)cc1	-4.1	-2.7	-9	4	-5	-0.5	5%
48	Clc1ccc(C2=Nc3cc(Cl)ccc3OC2)cc1	68*	u	-10	-4	-23	-4.2	x

(listing goes on)
nr	SMILES	HNF4A DNA FP	RanGTP-Imp inh	ALR inh	B2AR ag	Calb FLC	LANA-H2A inh	Vif A3G
49	Clc1ccc(CNc2ncnc3[nH]ncc23)c(Cl)c1	-7.2	x	x	21	x	x	-7%
50	Cc1ccc(OCC(=O)NC(C)c2ccccc2)cc1C (stereo not given)	0.1	0.3	-10	-9	5	-3.1	-7%
51	Brc1cc(Br)c2nc(-c3ccc(N4CCOCC4)cc3)ccc2c1	6.5	x	x	8	x	x	-44%
52	CC1CCCC(NC(=O)CCn2c(=S)oc3ccccc32)C1C (stereo not given)	4.2	-0.1	15	-1	-5	4.5	-3%
53	COc1ccccc1C(=O)NC(=O)COC(=O)C1CC2CCCC(C1)C2=O (stereo not given)	-0.1	-3.8	-13	1	-12	2.2	x
54	O=C(Nc1ccccc1)c1[nH]ncc1[N+](=O)[O-]	2.9	-1.7	-11	2	-11	1.4	1%
55	COc1ccc(Cc2nc3ccc(S(=O)(=O)N4CCOCC4)cc3[nH]2)cc1OC	0.7	1.5	-13	-2	-2	3.2	30%
56	Cc1nnc(SCC(=O)Nc2sccc2C(N)=O)s1	-2.9	x	30	-4	x	11	4%
57	CC(C)=CCC/C(C)=C/C=N/NC(=O)c1cccc([N+](=O)[O-])c1	2.6	-1.3	-2	1	32	2.3	9%
58	O=C(CCN1CCN(C(c2ccccc2)c2ccccc2)CC1)N/N=C/c1ccc(O)cc1	2.2	1.9	98*	14	-15	7.7	5%
59	COCC1COS(=O)(=O)NC1(C)C (stereo not given)	3.7	2.7	3	-3	-2	-1.8	x
60	CN=c1scc(-c2ccco2)n1/N=C/c1ccc(O)c(O)c1	-6.5	-2.3	x	-7	-1	x	9.3µM*
61	CCOc1ccccc1NC(=O)COc1coc(CN2CCc3ccccc3C2)cc1=O	2.0	2.7	-2	-1	-2	-3.6	x
62	O=C(NCc1ccco1)C1CCN(c2nc3ccccc3n2Cc2ccccc2F)CC1	-4.6	u	27	-1	-17	1.9	-2%
